E coli growth – inhibitors of Escherichia coli growth; OD600 absorbance (concentration not given with the values); hit rate 0.21% among 330,000; OD600, 23 h; hits give low values;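 active = OD600 absorbance below the run mean of sample wells minus 3.6 SD, in any replicate, cut at about 0.56 in these data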;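 also: stock transfer was 300 nL into about 60 µL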
HNF4A DNA FP – change in binding of human HNF4 alpha to DNA; HNF4a-FITC DNA binding, fluorescence polarization, 1 h; P41235; activity change, % at 10 µM; hit rate 0.3% among 360,000; in the data active = activity change above about 30%, passing the limit was not always enough;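 also: controls were the assay level and a saturating level of protein; the project sought stronger binding though the title names inhibitors; some compounds called inactive have numbers as strong as hits; positive values seem to mean higher polarization but the record does not say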
Target sequence (P41235 whole entry, looked up): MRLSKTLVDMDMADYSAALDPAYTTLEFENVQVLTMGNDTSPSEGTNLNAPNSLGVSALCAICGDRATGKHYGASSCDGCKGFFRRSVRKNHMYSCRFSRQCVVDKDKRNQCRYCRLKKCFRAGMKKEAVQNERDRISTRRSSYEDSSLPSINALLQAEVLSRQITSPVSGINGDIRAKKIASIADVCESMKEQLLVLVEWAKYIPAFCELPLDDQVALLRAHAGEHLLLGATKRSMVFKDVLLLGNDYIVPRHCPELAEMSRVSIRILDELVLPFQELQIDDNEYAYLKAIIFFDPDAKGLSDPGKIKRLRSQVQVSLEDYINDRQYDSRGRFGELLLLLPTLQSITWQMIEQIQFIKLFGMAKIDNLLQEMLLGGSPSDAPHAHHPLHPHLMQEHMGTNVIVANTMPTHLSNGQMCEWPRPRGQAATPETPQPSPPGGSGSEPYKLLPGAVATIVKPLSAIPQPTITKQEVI
UCH37 DUB inh – inhibitors of human deubiquitinating enzyme UCH37; purified proteasome/UCH37, Ub-AMC cleavage fluorescence; Q9Y5K5; AID 588478; hit rate 0.33% among 330,000; inhibition, % (no concentration beside the values);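 active = mean of two replicates above 20%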;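 also: 0% = compound-free wells with enzyme and 100% = wells lacking proteasome; stock transfer was 100 nL into about 20 µL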
Target sequence (Q9Y5K5 whole entry, looked up): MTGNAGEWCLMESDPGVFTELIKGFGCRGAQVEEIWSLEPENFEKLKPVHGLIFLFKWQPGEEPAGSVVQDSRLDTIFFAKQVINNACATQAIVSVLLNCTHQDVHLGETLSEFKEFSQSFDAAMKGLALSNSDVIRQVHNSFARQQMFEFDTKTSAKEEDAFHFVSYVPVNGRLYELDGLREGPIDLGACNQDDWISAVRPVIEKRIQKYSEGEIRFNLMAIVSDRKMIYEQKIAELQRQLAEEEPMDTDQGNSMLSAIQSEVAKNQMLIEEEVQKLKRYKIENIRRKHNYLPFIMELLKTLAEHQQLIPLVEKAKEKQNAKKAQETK
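System: Proteasome-associated human UCH37 deubiquitinase; Input: 0.15 nM proteasome in added enzyme buffer; Also added: Ub-AMC substrate from 1 µM stock; Incubation: 30 min compound-proteasome preincubation then 25 min substrate reaction, room temperature; Detection: fluorescence, ex 355 nm, em 460 nm; Read-out: % inhibition of Ub-AMC cleavage fluorescence; Benchmarks: no-proteasome and no-compound wells.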
Beta2AR agonist – activates human beta-2 adrenergic receptor causing internalization; hit rate 0.43% among 340,000; response, % (no concentration beside the values); Am2.2-beta2AR cells, FAP receptor internalization, flow cytometry; reference of the scale not given here; AID 504454;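 active = response above a set limit, near 3 SD of response in nonfluorescent compounds, cut at about 42% in these data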;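 also: stock transfer was 100 nL into about 11 µL; a reference agonist was the positive control; negative values mostly stem from fluorescent compounds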
LANA-H2A inh – blocks KSHV LANA binding to histone H2A/H2B | cell-free LANA-H2A/H2B peptide, fluorescence polarization | hit rate 0.6% among 320,000 | Q9QR71 | inhibition, % (no concentration beside the values); in the data active = inhibition mostly above about 10%, no sharp cut-off; inactive = mostly below about 6.7%;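 also: stock transfer was 7.5 nL into about 10 µL; 0% = median of vehicle wells and 100% = median of positive control wells; one replicate is shown; the record names a cut of 25% in any replicate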
Vif A3G – inhibitors of Vif binding to APOBEC3G peptide, primary screen, biochemical, TR-FRET, GST-Vif 1-94, biotin-A3G peptide, dose response retest (AID 1117319). TR-FRET GST-Vif / biotin-A3G peptide binding; higher % means a stronger effect; test concentration not given here; strong numbers were not always called active. inhibition, %; hits with a dose series show IC50 in µM. hit rate 0.57% among 260,000;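 active = above the screen mean plus three standard deviations and confirmed in dose response; inconclusive = results disagree or hit not tested in dose response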;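 also: Vif residues 1-94 fused to GST binding biotinylated APOBEC3G peptide 110-148; 0% = full assay without inhibitor and 100% = GST in place of GST-Vif; retest series ran down from 100 µM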
A1 inh – inhibitors of the anti-apoptotic protein A1, read as caspase activation. MEF A1-2A-BIM cells, Caspase-Glo 3/7 luminescence, 3 h; percent of clofoctol response, vehicle zero. caspase activation, % (test concentration not listed). hit rate 0.066% among 330,000. AID 2462;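 active = over half of replicate activation scores above 10%, or exactly half above 10 with the replicate mean above 10; inconclusive = replicate mean below 10 yet half the replicates above 10; inactive = over half of replicates below 10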;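 also: wells of about 30 µL received 50 nL stock; many hits fall short of the cut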
* marks the source's active call; other numbers are inactive results; ? = inconclusive; . = no result given.

SMILES	E coli growth	HNF4A DNA FP	UCH37 DUB inh	Beta2AR agonist	LANA-H2A inh	Vif A3G	A1 inh
COc1ccc(NC(=O)C(c2ccccc2)N(C)C(=O)CNC(C)=O)cc1 (stereo unspecified)	0.68	0.3	1.4	6	1.6	3%	-0.4
CCOC(=O)NCc1ccc2c(c1)cc(C)n2C	0.69	-3.2	1.7	-12	-2.1	30%	0.1
COCCn1c(Cc2ccccc2)nnc1SCc1ccc([N+](=O)[O-])cc1	0.67	4.7	3.2	0	0.6	.	0.5
O=C(NC1CCCCC1)c1cc([N+](=O)[O-])ccc1N1CCOCC1	0.72	1.5	8.6	1	-11	2%	-1.0
CCC1CCCCN1S(=O)(=O)c1ccc(C(=O)Nc2nnc(C3=COCCO3)o2)cc1 (stereo unspecified)	0.72	-3.0	0.8	3	3.5	.	-0.3
CCC(=O)N(Cc1ccco1)c1nc(C(=O)Nc2ccc(Cl)cc2)c(C)s1	0.66	4.1	1.5	-27	-0.2	.	0.7
Cc1c(Nc2nc(-c3ccccc3)cs2)c(=O)n(-c2ccccc2)n1C	0.68	2.2	2.5	-2	0.5	21%	-1.1
COc1ccc(N=C2SC(CC(=O)Nc3ccccc3)C(=O)N2CC2CCCO2)cc1 (stereo unspecified)	0.7	-0.9	1.0	-5	-1.2	9%	-0.1
CN1/C(=C/C(=O)CSc2ccccc2C(=O)O)C(C)(C)c2ccccc21	0.7	5.0	-13	-22	-2.1	5%	0.0
CCc1ccc(NC(=O)Cn2cnc3sc(C)c(S(=O)(=O)N4CCOCC4)c3c2=O)cc1	0.67	-0.1	2.7	-1	4.6	.	-2.7
O=C(Oc1ccc2ccccc2c1)C1CCC1	.	-0.9	.	3	2.6	4%	0.9
CCc1cc2c(=O)[nH]c(Cc3ccc(OC)cc3)nc2s1	0.64	-1.1	1.4	-2	0.7	.	-0.5
COc1ccc2c(c1)Sc1ccccc1N2CCN(C)C	.	-3.5	2.4	2	0.2	5%	0.3
Cc1ccc(-n2nc(N)c3c(=O)oc(N(C)C)nc32)cc1	0.68	0.6	4.1	12	4.0	-2%	0.3
O=C(N/N=C/c1cccs1)C(O)c1ccccc1 (stereo unspecified)	.	-0.3	.	-3	0.7	.	1.3
COc1cccc(C2C3=C(N=c4s/c(=C\c5cccc(O)c5)c(=O)n42)c2ccccc2CC3)c1OC (stereo unspecified)	.	11	.	7	-3.2	4%	1.0
CNC(=O)C(=O)Nc1c(O)c2ccccc2[nH]c1=O	0.68	-2.4	1.5	1	-4.9	8%	-0.6
CCOC(=O)c1ccc(NC(=O)Nc2ccn(C)n2)cc1	0.66	3.7	0.7	-1	-1.4	-2%	-1.1
COc1cccc(C(=O)CN2CCN(S(=O)(=O)c3ccc(Br)cc3)CC2)c1	0.67	-1.3	2.7	-2	-0.8	-3%	0.4
CC(=O)c1ccc(N2CCN(C(=O)COc3ccc(F)cc3)CC2)c(F)c1	0.66	2.0	6.0	-2	2.7	-3%	-0.2
COc1ccccc1NC(=O)N1CCN(c2ccc3nnc(-c4ccc(F)cc4)n3n2)CC1	0.68	0.8	3.3	10	10	-7%	0.0
Cc1cc(NC(=O)c2ccc(Cl)cc2)no1	0.69	1.7	1.4	-7	-1.1	12%	-2.1
CC(=O)c1cc(C#N)c(N(C)Cc2ccccc2)nc1C	0.64	-1.2	3.6	-1	-2.5	-3%	1.1
O=[N+]([O-])c1ccc(C[n+]2cccc(O)c2)cc1	0.67	0.1	2.4	-1	0.4	.	1.3
CCO[C@@H]1OC(C(N)=O)=C[C@H](C2CCCCC2)[C@H]1CCCO	.	3.8	-1.0	-2	0.7	.	-0.8
CCOc1ccc(S(=O)(=O)/N=C(/c2ccccc2)N(C)C)cc1	.	-0.8	.	0	0.7	-4%	-0.1
Cc1cc(C(=O)COC(=O)C2CCN(C(=O)c3ccc(Cl)cc3)CC2)c(C)n1CC1CCCO1 (stereo unspecified)	0.68	0.1	0.4	-4	2.7	4%	?
CCOc1ccccc1N(C(=O)Nc1cccc(Cl)c1)C1=NC(C)CS1 (stereo unspecified)	0.69	-1.9	1.4	-4	-4.6	-3%	0.6
O=C(NCc1ccc2c(c1)OCO2)C1CC(c2ccc(Cl)c(Cl)c2)=NO1 (stereo unspecified)	0.73	-4.0	-0.1	19	-0.5	-6%	-0.7
COc1ccc(-n2nc(C(=O)NCC(=O)N3CCC(C(N)=O)CC3)c3ccccc3c2=O)cc1OC	0.66	-0.5	4.8	5	-1.8	2%	1.1

3 of these compounds, reformatted:
Below each SMILES – E coli growth | HNF4A DNA FP | UCH37 DUB inh | Beta2AR agonist | LANA-H2A inh | Vif A3G | A1 inh
- Cc1ccc(-n2nc(N)c3c(=O)oc(N(C)C)nc32)cc1
  0.68 | 0.6 | 4.1 | 12 | 4.0 | -2% | 0.3
- O=C(N/N=C/c1cccs1)C(O)c1ccccc1 (stereo unspecified)
  . | -0.3 | . | -3 | 0.7 | . | 1.3
- COc1cccc(C2C3=C(N=c4s/c(=C\c5cccc(O)c5)c(=O)n42)c2ccccc2CC3)c1OC (stereo unspecified)
  . | 11 | . | 7 | -3.2 | 4% | 1.0

(more compounds)
SMILES	E coli growth	HNF4A DNA FP	UCH37 DUB inh	Beta2AR agonist	LANA-H2A inh	Vif A3G	A1 inh
CC(=O)c1c(C)n([O-])c2ccc(C)cc2[n+]1=O	0.43*	0.0	3.5	15	-3.0	25%	0.7
O=C(Nc1ccnc(-c2cccnc2)n1)c1ccccc1Cl	0.73	4.3	0.8	0	-0.2	-8%	0.3
Cc1nnc2sc(SCc3ccc(Cl)cc3)nn2c1=O	0.69	1.3	4.1	-2	.	.	-0.1
CCC(=O)N1N=C(c2c(O)n(C)c(=O)n(C)c2=O)CC1c1ccccc1 (stereo unspecified)	0.62	-1.1	0.5	-3	-3.8	31%	0.5
O=C(C1CC1)N1CCc2cc(Br)cc(S(=O)(=O)NCCCN3CCCCC3)c21	0.67	0.2	4.5	-12	0.6	-1%	0.3
NC(=O)COC(=O)c1ccc(Cl)c(S(=O)(=O)N(Cc2ccccc2)c2ccc(Cl)cc2)c1	0.67	-0.5	39*	3	-6.4	1%	-1.0
O=C(Nc1cccc(NC(=O)c2ccc3c(c2)OCO3)c1)c1ccccc1	0.69	0.3	2.4	-1	-5.3	-2%	-7.5
CCOc1ccc(CCNC(=O)COC(=O)/C=C/c2ccco2)cc1OCC	0.72	-4.7	1.2	-1	2.0	.	0.4
CCCOC(=O)c1ccc(NC(=O)c2cn(CC)c3nc(C)ccc3c2=O)cc1	0.7	.	0.1	.	.	-15%	.
O=C(COc1cc(Cl)c(Cl)cc1Cl)NC(=O)NC1CCCC1	0.73	-2.5	1.3	-3	1.4	3%	1.9
CCc1sc(C(=O)NCCCn2ccnc2)cc1Br	0.71	1.4	2.3	-5	-2.5	.	0.8
CN(C)S(=O)(=O)c1cccc(NC(=O)COC(=O)c2cc3ccccc3oc2=O)c1	0.7	6.7	-26	-1	-0.4	20%	-0.9
CCOC(=O)c1c(NC(=S)Nc2cccc(C)c2)sc2c1CC(C)(C)SC2	0.69	3.6	7.1	-2	1.2	.	0.1
CC(=O)N(Cc1ccc2c(c1)OCO2)C1CC(=O)N(CCc2ccccc2)C1=O (stereo unspecified)	0.75	-5.1	-1.4	-6	2.6	5%	0.0
C(=C/c1nccc2c1[nH]c1ccccc12)/c1ccc2c(c1)OCO2	0.69	9.6	-273	-7	-32	-10%	.
CN1CCN(S(=O)(=O)c2ccc(NC(=O)c3ccc(F)cc3)cc2)CC1	0.64	-1.8	2.7	-10	-2.6	4%	-1.4
CCc1cccc(C)c1NC(=O)COC(=O)CNC(=O)c1cccs1	0.67	-0.2	3.6	2	4.9	-3%	-1.1
C=CCOc1ccc(/C(O)=C2\C(=O)C(=O)N(CCCOC)C2c2ccc(O)c(OC)c2)cc1 (stereo unspecified)	.	-4.4	1.3	-11	4.0	-6%	0.3
Cc1cnc(C(=O)Nc2cccc3cccnc23)cn1	0.74	2.8	-7.7	-5	.	-1%	.
COc1ccc(S(=O)(=O)Nc2nc3ccccc3nc2Nc2cccc(C(=O)O)c2)cc1	0.7	-0.1	9.3	1	2.0	.	0.8
CC(NC(=O)/C=C/c1ccccc1[N+](=O)[O-])C1CC2CCC1C2 (stereo unspecified)	.	-1.5	.	-9	-0.8	.	-0.3
CCN1C(=O)[C@H]2[C@@H](c3ccc(C)cc3)N3C(=O)N(c4ccccc4)C(=O)[C@@]3(Cc3ccccc3)[C@H]2C1=O	.	-3.8	4.7	-1	1.9	.	0.2
CC1=NN(C(=S)Nc2ccccc2)C(C)(C)C1	0.69	1.3	-2.0	1	2.1	1%	0.6
Nc1ccc2nc(SCc3ccccc3F)sc2c1	0.65	2.9	5.9	5	0.8	-4%	-0.2
CCN(CC)CCNC(=O)c1ccc(NC(=O)Cc2ccc(OC)c(S(=O)(=O)N3CCOCC3)c2)cc1	0.68	1.8	3.6	-5	.	.	.
C=CC[C@H](CC(=O)NCCO)C(=O)N[C@H](COC(=O)[C@@H](CC=C)Cc1ccc(F)cc1)Cc1ccccc1	.	-1.8	2.5	7	5.9	.	-0.8
Cc1ccc(NC(=S)NCCc2c[nH]c3ccccc23)cc1	0.69	-1.3	3.3	2	-1.3	-3%	0.6
Cc1ccc(N2C(=O)CSC2c2ccc3c(c2)OCO3)cc1 (stereo unspecified)	0.66	5.2	4.6	-4	-3.2	5%	0.1
CCOCCCn1c(SCC(=O)NCc2ccco2)nc2c(sc3ccccc32)c1=O	0.71	-2.9	-1.8	6	3.1	19%	-0.7
COCCSc1nnc(NS(=O)(=O)c2ccccc2)s1	0.71	3.4	1.0	-3	5.0	0%	0.5
Cc1ncc(CO)c2c1Oc1nc(-c3ccccc3F)nc(SCC(=O)N(C)c3ccccc3)c1C2	0.67	-4.6	-0.5	15	-0.3	.	0.2
CCOc1ccc(NC(C)=O)cc1[N+](=O)[O-]	0.62	-3.6	5.0	3	-0.8	.	1.1
O=C(COC(=O)C1CCN(c2ccc(C(F)(F)F)cn2)CC1)Nc1ccc(Cl)cn1	.	1.6	.	-3	2.3	.	-0.2
N#CCSc1nc(-c2ccccc2)nc2ccc(F)cc12	0.7	-1.2	-1.9	4	2.7	.	1.3
O=C(CN1c2cccc3cccc(c23)S1(=O)=O)Nc1ccccc1Br	0.69	-2.4	-15	10	-4.5	.	0.7
Cc1nnc(SCC(=O)NC2CCCCCC2)n1C(C)C	0.7	-1.2	0.4	10	-2.0	.	1.0
COc1ccc(N2CCN(C(=O)NC(=O)c3ccc(Cl)cc3)CC2)cc1	0.67	-1.8	0.0	0	11	.	-0.1
COc1cccc(/C=N/N2CCN(Cc3ccccc3)CC2)c1O	.	2.7	.	1	0.4	.	-2.7
CC(C)(C)NC(=O)CN1CCC(O)(c2ccc3c(c2)OCO3)CC1	0.68	0.9	4.4	-2	1.7	-8%	-0.4
Cc1ccc(C(=O)COC(=O)COc2ccccc2C)cc1	0.74	-1.2	4.3	15	2.3	.	2.5
CCOC(=O)C1=C(C)NC(SC)=NC1c1ccc(OC)cc1 (stereo unspecified)	0.72	-0.2	6.5	2	1.9	7%	0.2
COc1cc(OCc2ccc(C)cc2)ccc1CNC[C@H]1O[C@@H](n2cnc(C(N)=O)n2)[C@H](O)[C@@H]1O	.	-3.3	.	-4	.	0%	.
O=C(NNC(=O)c1ccc2c(c1)OCO2)NC1CCCCC1	0.76	1.4	-4.7	-3	-3.2	-4%	0.5
Cc1ccc(C)c(OCCC(=O)N2CCN(S(=O)(=O)c3cc(F)ccc3F)CC2)c1	0.7	2.0	2.2	2	.	4%	.

Assay outcomes from PubChem BioAssay.
